Assay outcomes as filed in PubChem BioAssay.
Ecoli growth – blocks Escherichia coli growth; OD600, 23 h; active compounds read low; 330,000 compounds, 0.21% hits; OD600 absorbance (concentration not given with the values); AID 1053175;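 active means OD600 absorbance below the run mean of sample wells minus 3.6 SD, in any replicate, cut at about 0.56 in these data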;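 further: stock transfer was 300 nL into about 60 µL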
B2AR ag – agonists of human beta-2 adrenergic receptor inducing internalization. P07550. Am2.2-beta2AR cells, FAP receptor internalization, flow cytometry; reference of the scale not given here. response, % (concentration not given with the values). 340,000 compounds, 0.43% hits. AID 504454;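 active means response above a set limit, near 3 SD of response in nonfluorescent compounds, cut at about 42% in these data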;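 further: stock transfer was 100 nL into about 11 µL; a reference agonist was the positive control; negative values mostly stem from fluorescent compounds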
Target sequence (P07550 whole entry, looked up): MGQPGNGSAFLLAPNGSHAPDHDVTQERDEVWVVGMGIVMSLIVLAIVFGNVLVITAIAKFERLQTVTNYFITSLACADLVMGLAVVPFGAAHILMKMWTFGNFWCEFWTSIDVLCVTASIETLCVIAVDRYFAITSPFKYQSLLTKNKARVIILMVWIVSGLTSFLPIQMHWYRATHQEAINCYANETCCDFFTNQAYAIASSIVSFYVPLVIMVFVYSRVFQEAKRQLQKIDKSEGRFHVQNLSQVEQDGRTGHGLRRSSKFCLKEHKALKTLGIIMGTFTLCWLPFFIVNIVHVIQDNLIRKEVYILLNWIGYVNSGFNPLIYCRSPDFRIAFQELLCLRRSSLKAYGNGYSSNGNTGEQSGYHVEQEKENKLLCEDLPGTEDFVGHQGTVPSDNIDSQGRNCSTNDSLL
UCH37 DUB inh – human UCH37 deubiquitinating enzyme inhibition. Q9Y5K5. purified proteasome/UCH37, Ub-AMC cleavage fluorescence. inhibition, % (no concentration beside the values). 330,000 compounds, 0.33% hits. AID 588478;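 active means mean of two replicates above 20%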;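 further: 0% = compound-free wells with enzyme and 100% = wells lacking proteasome; stock transfer was 100 nL into about 20 µL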
Target sequence (Q9Y5K5 whole entry, looked up): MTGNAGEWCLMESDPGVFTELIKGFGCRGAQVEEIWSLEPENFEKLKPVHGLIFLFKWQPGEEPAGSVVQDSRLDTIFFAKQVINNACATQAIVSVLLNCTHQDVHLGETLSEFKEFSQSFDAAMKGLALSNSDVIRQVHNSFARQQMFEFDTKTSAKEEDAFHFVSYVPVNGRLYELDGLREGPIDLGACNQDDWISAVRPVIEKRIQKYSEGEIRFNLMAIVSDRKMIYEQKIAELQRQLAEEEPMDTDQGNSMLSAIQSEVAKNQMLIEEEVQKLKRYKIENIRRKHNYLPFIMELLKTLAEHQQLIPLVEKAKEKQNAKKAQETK
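Material: human UCH37 enzyme supplied as purified proteasome complex. Measure: % inhibition of Ub-AMC cleavage fluorescence. Medium: pH 7.4 Tris-HCl (50 mM) with ovalbumin, ATP-MgCl2, DTT. Times: 30 min preincubation with enzyme, 25 min cleavage at room temperature. Detection: AMC fluorescence intensity at 355/460 nm.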
Vif TR-FRET – HIV-1 Vif–A3G interaction blockers – biochemical, TR-FRET, GST-Vif 1-94, biotin-A3G peptide, dose response retest, primary screen (AID 1117319) | 260,000 compounds, 0.57% hits | TR-FRET GST-Vif / biotin-A3G peptide binding; higher % means a stronger effect; test concentration not given here; strong numbers were not always called active | one-dose inhibition, %; IC50 in µM for titrated hits;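 active means above the screen mean plus three standard deviations and confirmed in dose response; inconclusive means results disagree or hit not tested in dose response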;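 further: Vif residues 1-94 fused to GST binding biotinylated APOBEC3G peptide 110-148; 0% = full assay without inhibitor and 100% = GST in place of GST-Vif; retest series ran down from 100 µM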
HNF4A DNA FP – change in binding of human HNF4 alpha to DNA; HNF4a-FITC DNA binding, fluorescence polarization, 1 h; 360,000 compounds, 0.3% hits; AID 1224865; P41235; activity change, % at 10 µM; in the data active means activity change above about 30%, passing the limit was not always enough;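 further: controls were the assay level and a saturating level of protein; the project sought stronger binding though the title names inhibitors; some compounds called inactive have numbers as strong as hits; positive values seem to mean higher polarization but the record does not say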
LANA-H2B inh – blocks KSHV LANA binding to histone H2A/H2B. Q9QR71. cell-free LANA-H2A/H2B peptide, fluorescence polarization. inhibition, % (no concentration beside the values). 320,000 compounds, 0.6% hits; in the data active means inhibition mostly above about 10%, no sharp cut-off; inactive means mostly below about 6.7%;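 further: stock transfer was 7.5 nL into about 10 µL; 0% = median of vehicle wells and 100% = median of positive control wells; one replicate is shown; the record names a cut of 25% in any replicate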
A1 inh – inhibitors of the anti-apoptotic protein A1, read as caspase activation; AID 2462; caspase activation, % (concentration not given with the values); 330,000 compounds, 0.066% hits; MEF A1-2A-BIM cells, Caspase-Glo 3/7 luminescence, 3 h; percent of clofoctol response, vehicle zero;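 active means over half of replicate activation scores above 10%, or exactly half above 10 with the replicate mean above 10; inconclusive means replicate mean below 10 yet half the replicates above 10; inactive means over half of replicates below 10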;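 further: wells of about 30 µL received 50 nL stock; many hits fall short of the cut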
* hit, by the source's call; i = inactive; u = inconclusive; x = no result given.

canonical_smiles	Ecoli growth	B2AR ag	UCH37 DUB inh	Vif TR-FRET	HNF4A DNA FP	LANA-H2B inh	A1 inh
Cc1cccnc1NC(=O)c1cccc(S(=O)(=O)N2CCCc3ccccc32)c1	0.68	-2	0.7	x	-0.2	1.7	-0.3
CCCCNC(=S)NNC(=O)CCn1cc(C)cn1	x	5	x	5%	2.6	-1.8	0.0
O=C(CN1CCN(Cc2ccccc2)CC1)Nc1cccc(S(=O)(=O)N2CCCCCC2)c1	0.7	-5	3.4	-1%	-0.7	9.1	-0.8
CCOc1ccccc1-n1c(COc2ccc(C)cc2)nnc1SCC(N)=O	0.72	-3	1.3	4%	1.5	0.0	0.4
COC(=O)c1ccc(NC(=S)NC2CCCCC2C)cc1 (stereo unspecified)	0.67	3	0.5	4%	-0.6	2.8	0.5
COc1ccc(/C=C/C(=O)Nc2cc(C)nn2-c2nc3ccccc3n2Cc2cccc([N+](=O)[O-])c2)cc1	0.68	-2	4.6	x	3.2	6.0	-0.3
Cc1ccsc1C(=O)NNC(=S)NCC(C)C	0.64	13	3.0	2%	-1.6	2.6	-0.2
CCCN(CCC)CCCNC(=O)c1cc2c(=O)[nH]c3ccccc3c2s1	0.69	-15	-217	-4%	1.0	-3.1	0.2
COc1ccc(NC(=O)CN2c3cccc4cccc(c34)S2(=O)=O)c(OC)c1	0.66	1	-11	6%	2.9	2.1	0.3
O=C(NCCN1CCN(c2ccccc2)CC1)c1ccc2c(c1)[nH]c(=S)n1c3ccccc3nc21	0.75	-11	2.6	11%	3.2	-3.3	u
Cc1ccc(C)c(NC(=O)CNS(=O)(=O)c2ccccc2)c1	0.65	2	1.9	-3%	5.6	2.7	0.8
CCCCC1CN2CCc3c([nH]c4ccccc34)C2(C)C1 (stereo unspecified)	0.62	1	3.5	0%	2.5	-1.9	-0.1
CCn1c(=NC(=O)COc2ccccc2)sc2cccc(F)c21	0.71	-2	2.5	-11%	-2.9	5.4	-0.5
Cc1cc(C)c2c(N)c(C(=O)Nc3cccc(C)c3C)sc2n1	0.67	1	i	x	-0.8	0.3	-0.2
CCOc1ccc(NC(=O)CNC(=O)c2ccc([N+](=O)[O-])cc2)cc1	0.66	-8	-1.6	2%	2.8	1.9	0.0

Further results
canonical_smiles	Ecoli growth	B2AR ag	UCH37 DUB inh	Vif TR-FRET	HNF4A DNA FP	LANA-H2B inh	A1 inh
CC(C)(C)c1ccc(OCCCNC2CCCC2)cc1	0.62	-1	2.7	-6%	-2.1	0.7	-0.5
Cc1cc(O)cc2c(=O)c3ccccc3sc12	0.67	11	-1.7	-4%	-2.0	2.3	0.9
COc1ccc(-n2c3c(cc(C(=O)NNc4ccccc4C)c2=O)C(=O)CC(C)(C)C3)cc1	0.68	3	4.5	-3%	-2.6	0.3	0.5
CCOc1cc(S(=O)(=O)N(CC)CC)c(OCC)cc1-n1cnnn1	0.68	-28	-59	76%	1.2	x	x
Clc1ccccc1Cn1nc(-c2ccccc2)nc1-c1ccccc1	0.72	-12	0.9	5%	5.3	-1.8	-0.5
CCCCC(=O)Nc1nnc(SCC(=O)Nc2ccc(OC)cc2)s1	0.66	-4	2.8	-4%	2.5	-2.6	0.8
CSC1=C(C#N)C(c2ccc(C)cc2)C2=C(CCCC2=O)N1 (stereo unspecified)	0.7	2	-2.8	2%	3.2	2.8	0.4
Cc1ccc(N=Nc2ccc(O)c(/C=N\NC(=O)c3ccc(N)cc3)c2)cc1C	x	-6	x	66%	-5.5	-2.2	-1.4
O=C(COC(=O)c1n[nH]c2ccccc12)Nc1ccc([N+](=O)[O-])cc1	0.64	-5	0.7	-4%	-1.4	6.2	-0.3
Cc1ccc(NC(=O)CCc2nnc3ccc(N4CCOCC4)nn23)cc1C	0.71	-8	4.5	-5%	5.0	-6.7	0.0
CCCCCCCCNC(=O)/C(C#N)=C/c1ccc2c(c1)OCCO2	0.71	5	-3.1	-3%	-0.8	4.5	1.1
CCC(C)c1ccccc1OCCn1ccnc1 (stereo unspecified)	0.66	-13	-0.5	-2%	5.1	5.2	0.3
CCOC(=O)c1cnc2c(OC)cccc2c1N1CCN(c2ccccn2)CC1	0.67	-5	4.4	1%	1.6	6.8	-0.3
Cc1c(NC2=NC3(CCCCC3)Cc3ccccc32)c(=O)n(C)n1-c1ccccc1	0.67	-10	-1.8	-8%	-1.7	0.1	0.0
Oc1nc(Nc2cccc(Cl)c2)sc1/C=C1\C=Nc2ccccc21	0.68	12	3.2	10%	3.5	1.8	-0.7

Next results follow:
canonical_smiles	Ecoli growth	B2AR ag	UCH37 DUB inh	Vif TR-FRET	HNF4A DNA FP	LANA-H2B inh	A1 inh
COc1ccc(C(=O)/C=C(\C)NCc2ccc3c(c2)OCO3)cc1	0.67	4	0.2	20%	9.5	4.2	0.1
CCCN(CC(=O)Nc1ccc(NC(C)=O)cc1)CC(=O)Nc1ccc(F)c(F)c1F	0.68	3	5.2	x	-1.1	-6.9	-0.4
CCOc1ccc(NC(=O)CCC(=O)NNC(=O)Nc2cccc(Cl)c2)cc1	0.72	1	1.0	-1%	-1.9	-3.2	u
CCOC(=O)c1sc(-c2ccccn2)nc1C	0.73	-7	-0.8	1%	-4.5	0.5	-3.7
COc1ccc(S(=O)(=O)N(CCc2ccccc2)CC(N)=O)cc1	0.68	1	0.8	x	-4.3	0.3	0.5
Cc1ccc2c(c1)C(O)(CC(=O)c1ccc3c(c1)OCO3)C(=O)N2 (stereo unspecified)	0.71	1	2.3	-7%	-2.8	0.5	-0.1
COc1ccc(NC(=O)NC2(C(=O)N3CCOCC3)CCCCC2)cc1	0.67	0	2.3	x	0.1	-1.1	1.2
Cn1c(SCc2ccccc2Cl)nnc1-c1cnccn1	0.65	6	0.9	4%	-0.2	4.4	-0.9
CC1Sc2ccc(S(=O)(=O)N3CCC(C(=O)NCCc4ccccc4)CC3)cc2NC1=O (stereo unspecified)	0.69	0	4.5	x	3.7	5.7	-0.7
C=CCSc1nc2sc3c(c2c(=O)n1CC)CCc1ccccc1-3	0.67	-4	-0.8	12%	5.6	-3.7	0.8
CC(C)Cc1ccc(CN2CCCC(NC(=O)c3cccc(-n4cnnc4)c3)C2)cc1 (stereo unspecified)	x	-7	x	-7%	4.0	53*	0.5
COc1cc(C(=O)NCC(=O)N/N=C/c2cccnc2)cc(OC)c1OC	x	3	x	x	0.7	3.4	0.1
O=[N+]([O-])c1cccnc1Oc1ccc(C2SCCS2)cc1	0.64	-2	5.3	-10%	2.0	-2.3	-2.4
Cc1ccc(NC(=O)C2CC=CCC2C(=O)N2CCCCC2)cc1 (stereo unspecified)	0.73	4	4.2	u	2.0	-9.3	-0.3
COCC(=O)Oc1c(S(=O)(=O)c2ccc(C)cc2)c(C)nn1-c1ccccc1	0.71	0	6.5	-4%	-0.1	x	-0.3

Further structures.
canonical_smiles	Ecoli growth	B2AR ag	UCH37 DUB inh	Vif TR-FRET	HNF4A DNA FP	LANA-H2B inh	A1 inh
CN(C)S(=O)(=O)n1cc(/C=C(\NC(=O)c2ccccc2F)C(=O)N2CCCC2)c2ccccc21	0.7	-4	4.4	x	-1.1	1.4	-0.6
CCOCCCNC(=O)Cn1cc2c(n1)CCCC2	0.71	5	0.7	u	-1.2	-2.3	-0.3
CC(/C=N/Nc1nnc2c(n1)[nH]c1ccccc12)=C\c1ccco1	x	7	x	11%	-1.9	4.4	-2.2
COc1ccc(S(=O)(=O)Nc2cc(Sc3ncn[nH]3)c(O)cc2C)cc1	0.66	x	4.2	x	-4.1	1.9	0.8
Cc1ccc(-c2cn(-c3ccc(OC(F)F)cc3)c3[n+]2CCCCC3)cc1	0.7	-3	2.9	0%	-3.0	-7.4	0.2
C=Cn1c(N2CCOCC2)nc2c1c(=O)[nH]c(=O)n2C	0.73	-1	4.8	-5%	-4.0	0.8	0.7
CCOC(=O)C1CCCCN1Cc1cccc(F)c1 (stereo unspecified)	0.7	-1	2.2	-1%	-1.0	-0.9	-0.2
O=C(Nc1ccnn1C1CCN(C(=O)c2cccc(Cl)c2)CC1)C1CC1	0.67	4	1.2	x	5.5	0.2	0.1
CCOC(=O)C1=NOC(Cn2cc(C(C)=O)c(=O)[nH]c2=O)C1 (stereo unspecified)	0.67	3	-0.1	x	-0.5	3.9	-1.2
CC(C)CCNC(=O)C1CCCN(S(=O)(=O)c2ccc3c(c2)CC(C)N3C(=O)C2CC2)C1 (stereo unspecified)	0.69	-11	3.9	x	-0.7	3.3	0.6
CCCCNS(=O)(=O)c1ccc(S(=O)(=O)n2cnc3ccccc32)cc1	0.67	2	3.2	0%	0.8	4.2	0.3
Cc1cccc(-n2c(N)c(-c3nc4ccccc4n3C)c3nc4ccccc4nc32)c1	0.76	9	-53	-8%	2.4	-1.4	-0.1
CC(C)Sc1ncc(S(=O)(=O)c2ccccc2)c(=O)[nH]1	0.68	-2	3.3	10%	-1.9	1.1	0.0
NS(=O)(=O)c1ccc(N=NN2CCCCC2)cc1	0.68	-4	4.9	-6%	-0.7	-1.1	-0.2
CCN1CCN(S(=O)(=O)c2ccc(Cl)c(C(=O)NCc3nc4ccccc4[nH]3)c2)CC1	0.71	3	2.3	-3%	-1.1	x	x

Later entries.
canonical_smiles	Ecoli growth	B2AR ag	UCH37 DUB inh	Vif TR-FRET	HNF4A DNA FP	LANA-H2B inh	A1 inh
CCOC(=O)C1CCN(c2ncnc3c2[nH]c2cccc(OC)c23)CC1	0.68	12	-111	-4%	-0.1	-1.5	0.0
Cc1ccc(C(=O)C(OC(=O)c2c(C)cc(=O)oc2C)c2ccccc2)cc1 (stereo unspecified)	0.73	-4	4.6	-3%	2.7	1.1	0.0
COc1ccc(CNC(=O)C[C@H]2C[C@H](C(=O)N3CCCCC3)[C@@]3(C)c4[nH]c5cc(-c6ccco6)ccc5c4CCN3C2=O)cc1OC	0.71	9	-10	-7%	4.9	x	x
COC(=O)N1C/C=C\C(c2ccc(OC)cc2)N(Cc2ccc(F)cc2)C(=O)C1 (stereo unspecified)	x	2	0.7	x	0.2	-2.7	-0.5
O=C(OCc1cnc(Cl)s1)c1cccs1	0.66	2	6.6	-2%	2.8	1.0	0.0
COc1ccccc1OCCOCCOc1c(C)cc(C)cc1Br	0.7	-3	-0.5	u	0.1	1.5	-0.1
CN(CC(=O)NCC(=O)Nc1ccc(F)c(F)c1F)C1CCS(=O)(=O)C1 (stereo unspecified)	0.68	4	-0.1	7%	4.8	x	0.7
Nc1ccc(NC2C[C@@H](C(=O)O)NC2=O)cc1 (stereo partly specified)	0.67	-6	4.1	u	1.8	-4.2	-0.4
O=[N+]([O-])c1cc([N+](=O)[O-])c(Oc2ccc(Cl)c3cccnc23)cc1NN1CCCCC1	0.73	-1	5.9	x	0.8	2.8	0.0
CCC(C)NC(=O)c1ccc2nc(-c3ccc(OC)c(OC)c3)c(-c3ccc(OC)c(OC)c3)nc2c1 (stereo unspecified)	0.63	22	-31	-52%	0.0	1.3	0.0
COc1ccccc1/C=C/C(=O)NC1CC2CCC1C2 (stereo unspecified)	0.66	2	-7.4	12%	1.1	0.6	0.1
COc1cc(C2/C(=C(\O)c3ccc4c(c3)CC(C)O4)C(=O)C(=O)N2CCN2CCOCC2)cc(OC)c1OC (stereo unspecified)	0.68	-10	9.1	x	-2.8	2.1	0.1

A section of the results above, as a working copy:
canonical_smiles	Ecoli growth	B2AR ag	UCH37 DUB inh	Vif TR-FRET	HNF4A DNA FP	LANA-H2B inh	A1 inh
CCOC(=O)C1CCN(c2ncnc3c2[nH]c2cccc(OC)c23)CC1	0.68	12	-111	-4%	-0.1	-1.5	0.0
Cc1ccc(C(=O)C(OC(=O)c2c(C)cc(=O)oc2C)c2ccccc2)cc1 (stereo unspecified)	0.73	-4	4.6	-3%	2.7	1.1	0.0
